KCNQ2 block: KCNQ2 channel blockers in CHO-K1 cells – cell-based, FluxOR thallium flux, B-score, primary screen (AID 2156); 310,000 tested, 1.1% active; O88943; 20 min; active compounds read low; only compounds with negative scores are shown here; some inactives read as strong as hits; B-score at 10 µM;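 active = fluorescence ratio B-score at most minus 3 library SDs, with starting brightness B-score within 2 library SDs, cut at about -5.5 in these data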
Target sequence (O88943 whole entry, looked up): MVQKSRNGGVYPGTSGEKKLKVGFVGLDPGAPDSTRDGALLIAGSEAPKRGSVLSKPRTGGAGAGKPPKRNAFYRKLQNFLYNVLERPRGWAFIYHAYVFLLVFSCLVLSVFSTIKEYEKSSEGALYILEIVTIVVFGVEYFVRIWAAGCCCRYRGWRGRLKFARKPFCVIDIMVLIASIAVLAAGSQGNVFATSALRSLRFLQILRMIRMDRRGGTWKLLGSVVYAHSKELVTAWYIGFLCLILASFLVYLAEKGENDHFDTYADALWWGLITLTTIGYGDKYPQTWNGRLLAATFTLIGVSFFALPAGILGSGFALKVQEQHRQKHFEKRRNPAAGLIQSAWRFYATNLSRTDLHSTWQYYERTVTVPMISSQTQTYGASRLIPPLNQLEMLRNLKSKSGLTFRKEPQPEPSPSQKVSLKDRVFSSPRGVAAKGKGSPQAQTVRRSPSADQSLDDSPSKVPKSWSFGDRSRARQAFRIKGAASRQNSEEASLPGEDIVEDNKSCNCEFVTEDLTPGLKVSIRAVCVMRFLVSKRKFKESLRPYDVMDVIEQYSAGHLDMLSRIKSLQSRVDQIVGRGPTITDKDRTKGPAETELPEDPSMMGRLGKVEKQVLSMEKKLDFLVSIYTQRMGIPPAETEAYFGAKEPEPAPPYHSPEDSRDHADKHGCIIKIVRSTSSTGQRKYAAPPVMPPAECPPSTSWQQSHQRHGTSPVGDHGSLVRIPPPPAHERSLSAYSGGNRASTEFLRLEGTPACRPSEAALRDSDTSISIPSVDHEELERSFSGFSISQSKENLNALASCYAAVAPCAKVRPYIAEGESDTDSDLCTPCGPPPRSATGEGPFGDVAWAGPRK
KCNQ2 block baseline: also measured in KCNQ2 block; calls as there; B-score; measured here: initial fluorescence intensity artifact check;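 brightness before thallium and not channel activity; 0 = typical well and far values either way flag optical interference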
* hit, by the source's call; i = inactive.

Value order: KCNQ2 block baseline, KCNQ2 block
1: COc1ccc(N2C(=O)[C@@H]3[C@H](C2=O)[C@H](C(C)=O)N2c4ccccc4C=C[C@@H]32)cc1
  0.08, i
2: CCOC(=O)c1ccc(Nc2cc(C)nc3nc(C)nn23)cc1
  1.9, i
3: Cc1nn(C)cc1S(=O)(=O)Nc1cccc(Cl)c1
  -1.1, i
4: CCc1ccc(NC(=O)C[n+]2cc(-c3ccc(C)cc3)n3c2CCC3)cc1
  0.39, i
5: Cc1ccc(C(=O)NCc2ccc(F)cc2)s1
  0.01, i
6: O=C(CC1COc2ccccc2O1)NC1CCCCC1 (configuration not stated)
  1.9, i
7: COc1ccc(-c2onc(C)c2-c2ccc3c(c2)OCCO3)c(O)c1
  -0.4, i
8: CC(NC(=O)C1CCCN1S(=O)(=O)c1ccccc1)c1ccccc1 (configuration not stated)
  -0.62, i
9: CC(C)Cc1cc(C(=O)NCc2cccnc2)no1
  -0.47, i
10: Clc1ccccc1C1Nc2cccc3cccc(c23)N1
  0.24, i
11: COc1ccccc1N1CCN(C(=O)CCSCc2ccccc2F)CC1
  -0.06, i
12: Cc1ccc(CNCC(O)(c2ccccc2)c2ccccc2)cc1
  -2.3, i
13: CN1CCN(C(=O)c2cc3ccccc3oc2=O)CC1
  -0.32, i
14: Cc1ccc(-n2ncc3c(=O)[nH]c(SCC(=O)N4CCN(c5ccccc5)CC4)nc32)cc1
  0.5, i
15: NC(=O)c1ccsc1N
  0.15, i
16: COc1cccc(C(CC(=O)Nc2cccc3ccccc23)NC(=O)c2ccccc2)c1 (configuration not stated)
  -0.33, i
17: CN(C(=O)CC1C(=O)NCCN1Cc1ccccc1C(F)(F)F)C1CCOCC1 (configuration not stated)
  -0.13, i
18: O=C1CSC(c2ccccn2)N1c1ccc(Br)cc1 (configuration not stated)
  -0.61, i
19: O=C(Nc1ccc(S(=O)(=O)NCc2ccco2)cc1)c1cccc(F)c1
  -1.8, i
20: C/C(=N\Nc1ccccc1C(=O)O)c1ccncc1
  2.3, i
21: C/C=C/c1ccc(OCCN2CCc3ccccc3C2)c(OC)c1
  1.8, i
22: N#CCC(=O)N1CCCCCC1
  -0.4, i
23: O=C1C(=O)N(CCCc2ccccc2)c2ccccc21
  -0.25, i
24: CC(=O)Nc1cccc2c1C(=O)N(c1cccc(OC(C)=O)c1)C2=O
  -1.2, i
25: CCN(CC)S(=O)(=O)c1ccc2c(c1)N(CC(=O)N1CCCC1)C(=O)CO2
  0.73, i
26: CCN(CC(=O)Nc1cc(Cl)ccc1C)C(=O)CSCc1c(C)noc1C
  -0.05, i
27: Cc1cc(C)c(C)c(S(=O)(=O)N2CCCCC2C(=O)O)c1C (configuration not stated)
  -1.1, i
28: Cc1cc(C)c[n+](CC(=O)c2ccc(NC(=O)c3ccccc3)cc2)c1
  -0.27, i
29: O=C(Nc1ccccc1)c1cnc2ccccc2n1
  -4.3, i
30: COc1ccccc1N1CCN(C2CCCN(S(=O)(=O)c3ccc(C)cc3)C2)CC1 (configuration not stated)
  -2.2, i

Reformatted screen by screen: entries from further up.
5) Cc1ccc(C(=O)NCc2ccc(F)cc2)s1
1) COc1ccc(N2C(=O)[C@@H]3[C@H](C2=O)[C@H](C(C)=O)N2c4ccccc4C=C[C@@H]32)cc1
16) COc1cccc(C(CC(=O)Nc2cccc3ccccc23)NC(=O)c2ccccc2)c1 (configuration not stated)
21) C/C=C/c1ccc(OCCN2CCc3ccccc3C2)c(OC)c1
24) CC(=O)Nc1cccc2c1C(=O)N(c1cccc(OC(C)=O)c1)C2=O
compound no.	5	1	16	21	24
KCNQ2 block baseline	0.01	0.08	-0.33	1.8	-1.2
KCNQ2 block	i	i	i	i	i

Four entries from above, tab-delimited:
entry	smiles	KCNQ2 block baseline	KCNQ2 block
19	O=C(Nc1ccc(S(=O)(=O)NCc2ccco2)cc1)c1cccc(F)c1	-1.8	i
20	C/C(=N\Nc1ccccc1C(=O)O)c1ccncc1	2.3	i
21	C/C=C/c1ccc(OCCN2CCc3ccccc3C2)c(OC)c1	1.8	i
22	N#CCC(=O)N1CCCCCC1	-0.4	i

Following part
Value order: KCNQ2 block baseline, KCNQ2 block
31: Cc1[nH]c(=O)[nH]c1C(=O)CCCCC(=O)O
  0.21, i
32: CN(C)CCCNc1nc(-c2ccccc2)c2c(c1C#N)CC(C)(C)OC2
  -0.45, i
33: COc1cccc(NC(=O)C2CCN(S(C)(=O)=O)CC2)c1
  -1.4, i
34: CC(C)N1CCc2c(sc(NC(=S)NC(=O)c3ccccc3)c2C#N)C1
  3.2, i
35: COc1ccccc1OCc1ccc(C(=O)NC2CCCCC2)o1
  -1.4, i
36: CCCOc1ccc(S(=O)(=O)N2CCN(C)CC2)c2ccccc12
  0.13, i
37: CCNC(=S)NC1CC2CCCC(C1)N2CCc1ccccc1 (configuration not stated)
  0.21, i
38: Cc1ccc(NC(=S)NC(C)(C)C)c([N+](=O)[O-])c1
  0.39, i
39: O=C(NNC(=O)c1ccccc1O)c1ccco1
  -0.04, i
40: C=CCn1c(SCC(=O)O)nnc1-c1cccc(Cl)c1
  3.4, i
41: Cc1cc(NC(=O)C(C)Oc2ccc(C(C)(C)C)cc2)no1 (configuration not stated)
  2, i
42: CC(=O)Nc1ccc(NC(=O)C2CCCN2C(=O)Nc2ccc(F)c([N+](=O)[O-])c2)cc1 (configuration not stated)
  -1.3, i
43: O=c1c2ccccc2nc(/C=C/c2ccc(Cl)cc2)n1CCO
  -1.1, i
44: O=C(Nc1cc(C(F)(F)F)ccc1-n1cncn1)c1ccc([N+](=O)[O-])o1
  -2, i
45: CCn1c(COc2ccc(C(C)C)cc2)nnc1SCC(=O)Nc1nccs1
  -0.09, i
46: Cc1ccc(S(=O)(=O)N(C)c2ccc(OCC(=O)Nc3nc(-c4ccccc4)cs3)cc2)cc1
  0.42, i
47: CCOC(=O)C1(Cc2cccc(OC)c2)CCN(Cc2csc(C(C)=O)c2)CC1
  0.47, i
48: O=C(O)c1ccc2c3c(ncnc13)-c1ccccc1C2=O
  -0.13, i
49: Cc1ccc(O)c(-c2[nH]ncc2C(=O)c2ccc(Cl)cc2)c1
  2.1, i
50: COc1ccc(NC(=O)Cc2c(C(=O)O)n(C)c3ccccc23)cc1OC
  0.29, i
51: COc1ccc(CN(C(=O)CSc2nnc(-c3ccccc3C)o2)c2ccc(F)cc2)cc1
  -0.09*, -6.4*
52: Cc1ccc2c(C(=O)CN3CCOCC3)c(C)[nH]c2c1
  -0.05, i
53: O=S(=O)(Cc1ccccc1Cl)Nc1ccccn1
  0.02, i
54: Cc1ccc(CNC(=O)CN2C(=O)NC(C)(c3ccc(Cl)cc3)C2=O)cc1 (configuration not stated)
  0.44, i
55: Cc1cccc(NC(=O)c2ccccc2Br)n1
  0.55, i
56: Nc1c(C(=O)c2ccccc2O)cnn1-c1ccc(S(=O)(=O)N2CCOCC2)cc1[N+](=O)[O-]
  1.8, i
57: O=C(NC1CCCCC1)c1ccc(-c2ccccc2[N+](=O)[O-])o1
  0.01, i
58: CCOC(=O)c1c(NC(=O)C(C)N2CCN(S(=O)(=O)c3cccs3)CC2)sc2c1CCC(C)C2 (configuration not stated)
  0.64, i
59: COc1ccc(NC(=O)C2CCCN(S(=O)(=O)c3c(C)n[nH]c3C)C2)cc1 (configuration not stated)
  0.15, i
60: C#CC[N+](C)(C)CCCCCCCCCCCC
  0.43, i

Following part
Value order: KCNQ2 block baseline, KCNQ2 block
61: CCc1cccc2c(C(=O)COC(=O)/C=C/c3ccccc3OC)c[nH]c12
  0.58, i
62: COc1cccc(OCC(=O)NNC(=O)c2ccc3ccccc3c2O)c1
  0.22, i
63: C=C1N(c2ccc(Cl)cc2)C(=O)OC1(C)C
  -2.2, i
64: COc1ccc(CCNC(=O)CC(C)S(=O)(=O)c2ccc3c(c2)NC(=O)CO3)cc1OC (configuration not stated)
  0.02, i
65: Cc1nnc(SCC(=O)N2CCOCC2)n1C
  1, i
66: COc1ccc(Cc2nc(C(=O)Nc3ccc(OC)cc3)cs2)cc1
  -2.5, i
67: CC(=O)Nc1ccc(NC(=O)C2CC(=O)N(Cc3ccccc3)C2)cc1 (configuration not stated)
  0.71, i
68: CCN(CC(=O)NCc1ccc(Cl)cc1)C(=O)/C=C/c1ccc(Cl)c([N+](=O)[O-])c1
  -0.41, i
69: Nc1ccc(N2CCN(c3ccccc3)CC2)c(F)c1
  1.5, i
70: N#Cc1c(N2CCOCC2)nc(N)c2c(N)nc3c(c12)CC(CCl)O3 (configuration not stated)
  0.21, i
71: Cc1cc(C)cc(C(=O)NCC(=O)OCC(=O)N2CCN(S(=O)(=O)c3ccc4ccccc4c3)CC2)c1
  1.6, i
72: CCN(CC)S(=O)(=O)c1ccc2c(c1)nc(SC(C)C(N)=O)n2-c1ccc(OC)cc1 (configuration not stated)
  0.14, i
73: Cc1ccc(S(=O)(=O)NC(=O)c2cc(C)n(-c3cc(S(=O)(=O)N4CCOCC4)ccc3N3CCCC3)c2C)cc1
  -0.29, i
74: COc1ccccc1CCNC(=O)C(=O)NCCC1CCCCN1S(=O)(=O)c1ccccc1 (configuration not stated)
  -0.06, i
75: Cc1nc(C(=O)NCc2ccccc2)sc1C1(C)CC(c2cccc([N+](=O)[O-])c2)=NO1 (configuration not stated)
  1.2, i
76: O=C(Cc1ccccc1)NCCS(=O)c1ccc(Cl)cc1 (configuration not stated)
  -0.01, i
77: CCC(C)(C)C1CCC(=NNc2nc3ccccc3[nH]2)CC1 (configuration not stated)
  0.07, i
78: CCC(C)[C@H](N)c1nnc(SCc2cccc(F)c2)o1 (some centres not stated)
  -1.6, i
79: N#Cc1c(NC(=O)c2ccccc2)sc2c1CCC2
  -0.77, i
80: Cc1cc(=O)nc2c3ccccc3n(CC(=O)NCCC3=CCCCC3)n12
  1.9, i
81: CCc1nc(-c2ccc(OC)c(OC)c2)cc2cc(OC)c(OC)cc12
  0.02, i
82: Cc1ccccc1NC(=O)CSc1nc(N2CCCCC2)nc(N2CCCCC2)n1
  -0.03, i
83: O=C(NCC(c1ccco1)N1CCc2ccccc21)C(=O)Nc1ccccc1F (configuration not stated)
  -0.26, i
84: O=C(CN1CCN(S(=O)(=O)c2ccc(Br)cc2)CC1)Nc1ccc(F)cc1
  0.35, i
85: CCCCNc1ccc(C(CC(N)=O)NC(=O)c2cc(C)cc(C)c2)cc1[N+](=O)[O-] (configuration not stated)
  2.6, i
86: CCCCOC(=O)Nc1nnc(Cc2ccc(Cl)cc2)s1
  0.12, i
87: Cc1nn(Cc2ccccc2)c(C)c1NC(=O)Cn1nc([N+](=O)[O-])c(Cl)c1C
  -1.2, i
88: COc1ccccc1CNC(=O)CSc1nc2nc(C)cc(C)n2n1
  -0.34, i
89: Cc1ccc(F)c([C@H]2[C@@H]3C=CCC[C@@]3(C)C(=O)N2Cc2ccccc2)c1
  -1.8, i
90: CN1C(=O)C(CC(=O)NCCc2ccccc2)N(NC(=O)c2cccc(F)c2)C1=S (configuration not stated)
  -0.08, i

More records follow.
Value order: KCNQ2 block baseline, KCNQ2 block
91: COc1ccc(S(=O)(=O)n2ccnc2C)c(C)c1C
  -0.01, i
92: CCOC(=O)N1CCC(NC(=O)c2oc3c(C)c(C)ccc3c2C)CC1
  -0.97*, -5.7*
93: Cc1ccc(S(=O)(=O)N2CCC(C(=O)Nc3ccccc3N3CCCC3)CC2)c(C)c1
  1.5, i
94: COc1ccc(-c2cc(C#N)nc(NN)n2)cc1
  0.84, i
95: CC(C)Oc1ccc(C(=O)OC(C)C(=O)Nc2nc(-c3cccc([N+](=O)[O-])c3)cs2)cc1 (configuration not stated)
  -0.25, i
96: COc1cc(C(=O)ONC(=O)c2ccc(OC(F)F)cc2)cc(OC)c1OC
  -0.88, i
97: Cc1cc(C)c2nc(-c3ccccn3)cc(C(=O)Nn3cnnc3)c2c1
  0.17, i
98: O=[N+]([O-])c1ccc(CN2CCN(Cc3c[nH]c4ccccc34)CC2)cc1
  -0.15, i
99: N=c1n(CCCOc2ccccc2Cl)c2ccccc2n1CC(N)=O
  -0.46, i
100: O=C(Nc1nnc(S(=O)(=O)N2CCCCCC2)s1)c1ccc(Cl)cc1
  -1.7, i
101: COc1ccc(C2c3[nH]c4ccccc4c3CCN2C(=O)c2ccc(=O)n(C)n2)c(F)c1 (configuration not stated)
  0.51, i
102: Cc1cc(C(C)(C)C)oc1C(=O)N1CCN(C(=O)c2oc(C(C)(C)C)cc2C)CC1
  0.87, i
103: CCCCn1c(=O)n(CC(=O)Nc2ccc(C)c(Cl)c2)c(=O)c2c1ncn2Cc1ccco1
  -0.04, i
104: Cc1onc(-c2c(F)cccc2Cl)c1C(=O)N1CCCCC1
  0.04, i
105: O=C(NCC1CCCO1)c1ccc(Cn2c(=S)[nH]c3ccccc3c2=O)cc1 (configuration not stated)
  -0.35, i
106: COc1ccccc1N1CCN(C(=O)CSc2nnc(NC(=O)C(C)C)s2)CC1
  -1, i
107: COc1ccc2[nH]cc(CCNC(=O)Nc3ccccc3C)c2c1
  -0.42, i
108: CCOc1ccc(NS(=O)(=O)c2ccc(C(=O)N(C)CC(=O)Nc3ccc(C)cc3)cc2)cc1
  0.68, i
109: Cc1oc(-c2cccs2)nc1CS(=O)CC(=O)NCCCN1CC(C)CC(C)C1 (configuration not stated)
  0.89, i
110: O=C(CCc1cn(Cc2ccc(F)cc2)c2ccccc12)N1CCOCC1
  4, i
111: C=CCNC(=S)NNc1nc2sc3c(c2c(=O)[nH]1)CC(C)(C)OC3
  0.17, i
112: NC(=O)[C@@H]1CC2(CC(c3cccc(NC(=O)CC(c4ccccc4)c4ccccc4)c3)=NO2)CN1C(=O)c1ccc(Cl)cc1 (some centres not stated)
  -0.24, i
113: COc1cccc(CN(C)C(=O)c2cc(COc3c(F)cccc3F)on2)c1
  -0.83, i
114: O=C(CNC(=O)c1ccccc1)OCC(=O)c1cccs1
  0.54, i
115: CC1(C)CC(=O)C2=C(C1)N(Cc1cccnc1)C(=O)C2(NC(=O)c1cccnc1)C(F)(F)F (configuration not stated)
  -1.4, i

An excerpt; rates above refer to the full screens.
